# HPGD inh = blocks human HPGD enzyme activity | P15428 | purified HPGD, NADH fluorescence kinetic, PGE2 substrate | Potency, µM, inactives show at the top dose activity change, negative = inhibition, usual class: inhibitors | 4.3% of 150,000 active | AID 894; active = well fitted inhibition curve with a large enough effect (not every such curve was filed as active); inconclusive = small, poorly fitted or top-dose-only effect, or another doubt; inactive = no such curve, though single readings can be large or run the other way;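 note: top concentration of the series not given in the record; plate controls included wells without enzyme; inactives centre near -10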
# Target sequence (P15428 whole entry, looked up): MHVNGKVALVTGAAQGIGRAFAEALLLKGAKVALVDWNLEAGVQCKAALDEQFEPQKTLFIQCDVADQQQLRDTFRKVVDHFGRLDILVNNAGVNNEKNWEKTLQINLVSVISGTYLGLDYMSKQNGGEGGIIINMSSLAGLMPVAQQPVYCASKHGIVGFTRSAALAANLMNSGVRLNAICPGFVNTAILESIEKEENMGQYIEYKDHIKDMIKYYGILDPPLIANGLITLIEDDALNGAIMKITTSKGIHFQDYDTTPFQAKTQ
#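 NADH formation kinetics: reaction with 30 uM PGE2 and 1 mM NAD+ (final), 20 nM enzyme, Tris-HCl pH 8 with Tween 20, after 15 min compound preincubation at room temperature. Fluorescence change, last versus first of five reads.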
# * marks the source's active call; other numbers are inactive results; u = inconclusive. % is set by controls: 0 for no effect and ±100 for the full control effect; potency is the fitted concentration of half-maximal effect.
entry	Structure	HPGD inh
1	N#Cc1cccc(NC(=O)CCC2CCCC2)c1	-14%
2	O=C(c1cccc(-c2nnc(-c3ccccc3)o2)c1)N1CCCCCC1	8.9µM*
3	CC(CCc1ccccc1)NC(=O)CSc1nc(N)cc(N)n1 (stereo unspecified)	-9%
4	COC(=O)c1cccnc1N1CCN(c2ccccc2F)CC1	-6%
5	O=P(c1ccccc1)(c1ccccc1)N(c1ccccc1)c1ccccc1	-14%
6	CCOCCCNC(=S)NCCc1ccccc1	-10%
7	CC(=O)c1nc(N2C(=O)CC(Cc3ccccc3)C2=O)sc1C (stereo unspecified)	28µM*
8	CCCCOc1nc(N)nc(-c2ccccc2)n1	-10%
9	CCCCCOC(=O)c1c(N)n(CCOC)c2nc3ccccc3nc12	u
10	CCC1CCCCN1CCCNC(=O)CC1Oc2ccccc2NC1=O (stereo unspecified)	-1%
11	Cc1noc(C)c1C(=O)N1CCC2(CC1)CN(C(=O)Nc1cccc(F)c1)C2	-13%
12	Cc1cc(Nc2ccccc2)n(CCO)n1	-13%
13	O=C(c1cc2ccccc2o1)c1cccs1	-27%
14	COc1ccc(CC(=O)Nc2nncs2)cc1OC	-7%
15	Nc1cc(=O)[nH]c(SCc2csc(-c3ccccc3)n2)n1	-6%
16	S=C(NCC1CCCO1)n1nnc2ccccc21 (stereo unspecified)	-21%
17	CCOc1ccc(-c2nn3c(-c4ccccc4)nnc3s2)cc1	-15%
18	O=C(NC1CCCCCC1)C1CCCN1S(=O)(=O)c1cccc2cccnc12 (stereo unspecified)	-9%
19	Cc1sc(NC(=O)c2ccco2)nc1-c1ccc2c(c1)CC(C)N2C(=O)C1CC1 (stereo unspecified)	u
20	COC(=O)C1NN=C(C(=O)c2ccc(Cl)cc2)C1c1ccc(OC)cc1 (stereo unspecified)	-18%

# Four of these compounds, set out differently.
14: COc1ccc(CC(=O)Nc2nncs2)cc1OC
  HPGD inh = -7%
15: Nc1cc(=O)[nH]c(SCc2csc(-c3ccccc3)n2)n1
  HPGD inh = -6%
16: S=C(NCC1CCCO1)n1nnc2ccccc21 (stereo unspecified)
  HPGD inh = -21%
17: CCOc1ccc(-c2nn3c(-c4ccccc4)nnc3s2)cc1
  HPGD inh = -15%

# Additional structures follow:
entry	Structure	HPGD inh
21	COc1cc(CCC(=O)OCc2nnc(-c3ccccc3)o2)cc(OC)c1OC	-24%
22	O=c1cccccc1NCc1ccccc1	-11%
23	CCOC(=O)c1[nH]c(C)c(C(=O)OC(C)C(=O)Nc2ncc(Cl)cc2Cl)c1C (stereo unspecified)	-15%
24	CCOC(=O)N1CCN(C(=O)c2ccc3c(=O)n(-c4ccc(F)cc4)c(=S)[nH]c3c2)CC1	-13%
25	Cc1cccc(N2CC34C=CC(O3)C(C(=O)O)C4C2=O)c1 (stereo unspecified)	-4%
26	CCc1ccc(C(=O)CSc2nc3cc(S(=O)(=O)N4CCOCC4)ccc3n2CC)cc1	-23%
27	O=C(COc1ccc(S(=O)(=O)NC2CCCCC2)cc1)Nc1ccc2c(c1)OCCO2	-19%
28	COC(=O)CN1C(=O)C2(C(C#N)=C(N)Oc3c2c(C)nn3-c2ccccc2)c2ccccc21 (stereo unspecified)	-13%
29	Cc1ccn2c(C(=O)CSc3ccccc3Cl)c(C)nc2c1	-6%
30	COc1cc2c(cc1O)CCC1C2CC[C@@]2(C)C1CC[C@@H]2O (stereo partly specified)	3%
31	CN(Cc1ccccc1)c1nc2c(c(=O)n(C)c(=O)n2C)n1CCSc1ncccn1	-7%
32	O=C(O)Cn1nc(C(F)(F)F)c2c1CCC2	-7%
33	CCOc1ccc(-c2cnc(SCC(N)=O)nc2N)cc1	-10%
34	CCO/N=C(\C)c1c(O)c2ccccc2n(C)c1=O	-3%
35	CCOCCn1cnc2sc(C(=O)NCC(=O)OCC)c(C)c2c1=O	2%
36	Nn1c(SCC(=O)Nc2ccc(F)cc2F)nnc1C1CCCCC1	-12%
37	CCc1nnc(NS(=O)(=O)c2ccc(NS(=O)(=O)c3ccccc3)cc2)s1	2%
38	C/C(=N\O)C(C)(C)NC(=O)Nc1ccc(Cl)cc1	1%
39	Cc1nn(C)c(C)c1S(=O)(=O)N1CCCC(C(=O)N2CCN(c3ccc(Cl)cc3)CC2)C1 (stereo unspecified)	-15%
40	COC(=O)C1=C(CSc2nc3c(cc2C#N)CN(C)CC3)OC(N)=C(C#N)C1c1ccccc1F (stereo unspecified)	u
41	O=C(Nc1cccc(NC(=O)c2cccnc2)c1)c1cccnc1	2%
42	CCCCC(CC)CNC(=O)C1CC=CCC1C(=O)O (stereo unspecified)	0%
43	COc1ccc(N2CCN(C(=O)CSc3nnc4c(C)cc5c(C)cc(C)cc5n34)CC2)cc1	-24%
44	Cc1ccc(C(=O)NCCSC(C)(C)C)cc1[N+](=O)[O-]	-30%
45	CCCSc1nc(NCc2ccco2)c2c3c(sc2n1)COC(C)(CC)C3 (stereo unspecified)	-10%
46	COc1ccc(C)cc1N1C(=N)/C(=C2/Nc3ccccc3S2)C(c2ccccc2)C1=O (stereo unspecified)	-15%
47	COc1ccc(-c2cnnn2-c2ccc(NC(=O)c3ccc(S(=O)(=O)N4CCCCC4)cc3)cc2)cc1	-21%
48	COc1ccc(C(C(=O)Nc2ccc3c(c2)OCO3)N(C)C(=O)Cc2c[nH]c3ccccc23)cc1 (stereo unspecified)	-13%
49	CN(C)Cc1ccc(-c2cc3onc(-c4ccccc4)c3c(=O)n2C)cc1	-2%
50	COCc1cc(C)nc(OCC(=O)N/N=C/c2ccc(OC)c(OC)c2)c1C#N	-10%
51	CC1=NN(C(=O)c2ccc(Cn3cc(Br)c([N+](=O)[O-])n3)o2)C(O)(C(F)(F)F)C1 (stereo unspecified)	-6%
52	Cc1cc(O)c(C(C)C)cc1NC(=O)c1ccc(Cl)cc1	-1%
53	COC(=O)c1ccc(COc2ccccc2/C=C(\C#N)C(=O)Nc2c(C)cccc2C)cc1	-8%
54	C=CCn1c(SCc2nc3ccccc3c(=O)[nH]2)nc2ccccc2c1=O	-17%
55	Cc1ccc(C)c(NC(=S)NC(NC(=O)Cc2cccc3ccccc23)C(Cl)(Cl)Cl)c1 (stereo unspecified)	-17%
56	O=C(CSC1=Nc2ccccc2C2=NC(CC(=O)NC3CCCCC3)C(=O)N12)NCc1ccco1 (stereo unspecified)	u
57	CN1CCN(C2OC(=O)c3ccccc32)CC1 (stereo unspecified)	-11%
58	Cc1cc(C)n(Cc2cccc(F)c2)c(=O)c1C#N	u
59	CCCS(=O)(=O)c1nc(S(=O)(=O)c2ccc(C)cc2)c(NCc2ccc3c(c2)OCO3)s1	-16%
60	CCCC/C(C)=N\NC(=O)CNS(=O)(=O)c1ccc([N+](=O)[O-])cc1	-3%
61	CSc1nc2n(n1)C(c1cc(Br)ccc1F)C(C(=O)N(C)C)=C(C)N2 (stereo unspecified)	-11%
62	O=C(NCCc1ccccc1)c1ccnc(/C=N/O)c1	-10%
63	CCCCOC(=O)Cn1c(=O)n(CC(=O)OCCCC)c2cc(C)ccc21	-18%
64	COc1ccc(-c2nc3c(=O)n(C)c(=O)[nH]c3n2CCc2ccccc2)cc1	u
65	COc1cc(C(=O)OCCN2CCOCC2)cc(OC)c1OC	0%
66	COc1ccc(N2C(=O)CCC(C(=O)Nc3ccccn3)C2c2ccc(OC)c(OC)c2)cc1 (stereo unspecified)	-4%
67	Cn1c(CCNC(=O)c2cccs2)nnc1SCC(=O)N1CCN(c2ccccc2)CC1	1%
68	CC(=O)Nc1ccc(C(=O)OCC(=O)NC(=O)NC(C)(C)C)cc1	-12%
69	CN(CC(=O)N1CCN(c2ccccn2)CC1)S(=O)(=O)c1ccccc1	-17%
70	COc1ccc(CCNC(=O)c2n[nH]c(=O)c3ccccc23)cc1	-4%

# Part of the list above, with each value named.
62: O=C(NCCc1ccccc1)c1ccnc(/C=N/O)c1
- HPGD inh: -10%
63: CCCCOC(=O)Cn1c(=O)n(CC(=O)OCCCC)c2cc(C)ccc21
- HPGD inh: -18%
64: COc1ccc(-c2nc3c(=O)n(C)c(=O)[nH]c3n2CCc2ccccc2)cc1
- HPGD inh: u

# The listing continues.
entry	Structure	HPGD inh
71	O=C(NCc1cccs1)c1ccc2c(c1)ncn2C1CCCC1	u
72	C=CCn1c(SCC(=O)Nc2cccnc2Cl)nnc1-c1ccc(Cl)cc1	-14%
73	COc1cccc(OC)c1-c1nnc(-c2cn(C)c3ccccc23)o1	u
74	CCN(CC)S(=O)(=O)c1cccc(C(=O)NC2CCCCC2)c1	-4%
75	COc1ccc(OC)c2[nH]c(=O)c(CCNC(=O)c3ccc(S(=O)(=O)N4CCCCC4)cc3)cc12	u
76	COC(=O)c1ccc(C(NC(=O)OCc2ccccc2)/C(=C/[C@@H](C)C(=O)N(C)Cc2ccccc2)c2cccnc2)cc1 (stereo partly specified)	-11%
77	CCCCNC(=O)c1ccccc1NC(=O)CN(c1ccccc1)S(=O)(=O)N(C)C	-18%
78	COc1cc(/C=N/NC(=O)CNC(=O)c2cccs2)ccc1O	-17%
79	COc1ccc(S(=O)(=O)N2CCc3ccccc32)cc1C(=O)OCc1c(C)noc1C	-18%
80	COc1ccc(/C=N/NC(=O)c2ccc(C)cc2)cc1CN1CCN(c2ccc(F)cc2)CC1	-27%
81	Cc1ccc(S(=O)(=O)c2nc(Nc3ccccc3)sc2Cl)cc1	-25%
82	c1ccc(-n2nnnc2-n2nnc3ccccc32)cc1	-1%
83	Cc1noc(C)c1CSCC(=O)OCC(=O)N1CC(=O)Nc2ccccc21	-2%
84	Cc1ccc2c(c1)NC(=O)C(CC(=O)NCc1ccc(F)cc1)O2 (stereo unspecified)	-9%
85	CNC(=O)C1C(=S)NC(N)=C(C#N)C1c1ccccc1 (stereo unspecified)	-8%
86	COC(=O)CNC(c1ccccc1)c1cc(C)ccc1NS(=O)(=O)c1ccc(C)cc1 (stereo unspecified)	-14%
87	Cc1ccc(S(=O)(=O)Nc2ccccc2C=O)cc1	-9%
88	O=C(CN1C(=O)c2ccccc2C1=O)Nc1ccc(-c2nc3ccccc3o2)cc1	-17%
89	CC1=C/C(=N\Nc2ccccc2[N+](=O)[O-])CC(C)(C)C1	-3%
90	CN(C)C(=O)c1cn(N(C)c2ncc(C(F)(F)F)cc2Cl)c(=O)c2ccccc12	-12%

# HPGD inh, what is marked active above.
entry	Structure	HPGD inh
2	O=C(c1cccc(-c2nnc(-c3ccccc3)o2)c1)N1CCCCCC1	8.9µM*
7	CC(=O)c1nc(N2C(=O)CC(Cc3ccccc3)C2=O)sc1C (stereo unspecified)	28µM*

# New compounds follow:
entry	Structure	HPGD inh
91	Cc1ccc(-n2c(SCC(=O)Nc3cccc(S(=O)(=O)NC4=NCCCCC4)c3)nc3ccccc3c2=O)cc1	-21%
92	Cc1onc(-c2ccccc2Cl)c1C(=O)NC1CCS(=O)(=O)C1 (stereo unspecified)	-3%
93	NC(=O)CSC1=Nc2ccccc2C2=NC(CC(=O)NCc3cccs3)C(=O)N12 (stereo unspecified)	-14%
94	CCOC(=O)C1CCN(Cc2nc3ccc(Cl)cc3n2CCO)CC1	-6%
95	O=C(c1ccc2c(c1)OCCO2)C1CCN(C(=O)c2ccc(F)c(F)c2)CC1	-17%
96	COC(=O)c1ccc(Sc2ccc(C)cc2)c(N)c1	u
97	Cc1cc(N2CCN(S(=O)(=O)Cc3ccccc3)CC2)n2ncnc2n1	-7%
98	COC(=O)c1cc2c(-c3ccccc3)c(C)c3ccccn3c-2c1C(=O)OC	-13%
99	CN(C)c1ncc2ncc(=O)n(C)c2n1	u
100	Cn1cccc1Cc1nnc(SCC(=O)Nc2nc3ccccc3s2)n1CCc1ccccc1	-12%
101	O=C(CC(c1ccccc1)c1ccccc1)NCC1CCCO1 (stereo unspecified)	7.9µM*
102	Cc1ccc(S(=O)(=O)c2c(N)n(/N=C/c3ccco3)c3nc4ccccc4nc23)cc1	u
103	COc1ccc(CCC(=O)OCC(=O)Nc2ccc(C)c(S(=O)(=O)N(C)C)c2)cc1	-10%
104	COc1ccccc1-n1nnnc1SCC(=O)Nc1cc(C)on1	-8%
105	Cc1ccc(S(=O)(=O)NC(CC(C)C)C(=O)NCc2ccco2)cc1 (stereo unspecified)	-3%
106	C/C(=N\NC(=O)c1cc2c(s1)CCC(C)C2)c1cccnc1 (stereo unspecified)	-3%
107	N#CC1=C(N)SC(N)=C(C#N)C1C1CC=CCC1 (stereo unspecified)	-17%
108	Clc1cccc(Cl)c1Cn1cnc(=NCc2ccco2)c2[nH]cnc21	-20%
109	O=C(C1CC1)N(CCN(C(=O)C1CC1)c1ccccc1)c1ccccc1	-12%
110	COCCCn1c(=N)c(C(=O)NC2CCCCC2)cc2c(=O)n3ccccc3nc21	u
111	CC(=O)Nc1ccc(-c2nnc(SCC(=O)c3ccc4c(c3)Cc3ccccc3-4)n2C)cc1	-13%
112	CCNC(=O)NC(=O)COC(=O)CNC(=O)COc1ccccc1	-2%
113	CCOC(=O)c1cc(NC(=O)CSCCO)ccc1Cl	-4%
114	COc1cccc(N=c2oc3ccc(OC)cc3cc2-c2nc3ccccc3[nH]2)c1	-27%
115	CC(=O)Oc1ccc(N2C(=O)C3C4C=CC(CO)(O4)C3C2=O)cc1 (stereo unspecified)	22µM*
116	CCCOc1ccc(N2C(=O)CC(N3CCN(c4ccccc4OC)CC3)C2=O)cc1 (stereo unspecified)	3%
117	O=c1c2sccc2n(Cc2cc(=O)n3ccccc3n2)c(=O)n1-c1ccccc1	-25%
118	Cc1ccc(NC(=O)c2c(-c3c(F)cccc3Cl)noc2C)cc1F	u
119	COc1ccccc1N1C(=O)C2CCC(c3ccccc3)CC2C1=O (stereo unspecified)	-15%
120	CCN(CC)C(=O)C1CCCN(Cc2ccccc2)C1 (stereo unspecified)	-7%

# These rows are one share of the data. The share of hits here may be higher or lower than overall.
